gsp antag – antagonists of gsp mutant (McCune-Albright syndrome); gsp-mutant cells, cAMP HTRF, 30 min; control for the full effect not named in the record; Potency, µM (series often up to 76.9 µM), without a hit: top-dose activity change, negative = inhibition, usual class: inhibitors; 340,000 compounds, 0.4% hits; active = falling curve of any shape with a large fitted effect; inconclusive = falling curve, mostly with a smaller effect; inactive = flat or rising curve; cell line not stated here;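 further: intracellular cAMP measured with PDE inhibitor Ro 20-1724 present during compound exposure; potency means the concentration at half of the fitted maximal effect; on the % scale 0 is the no-effect control and ±100 the full control effect; nearly all actives have a fitted effect of over 65% in size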
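HTRF cAMP read-out (cAMP-d2 plus anti-cAMP antibody-K in lysis buffer, 30 min RT). Before lysis, cells are exposed to compounds with […] for 30 min at 37C in DPBS containing Ca/Mg, BSA and Tween 20.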
gsp agonist – activates gsp, the McCune-Albright syndrome mutation. AID 624287. Potency, µM (doses to about 76.9 µM), inactives show at the highest dose activation (cAMP increase), hits mostly activators. 340,000 compounds, 0.13% hits. gsp mutant cells, cAMP HTRF, 30 min; control for the full effect not named in the record; active = well fitted activation curve with a large enough effect; inconclusive = small, poorly fitted or top-dose-only effect, or another doubt; inactive = no such curve, though single readings can be large or run the other way; cell line not stated here;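 further: phosphodiesterase inhibitor Ro 20-1724 added with compounds to block cAMP breakdown; potency means the concentration at half of the fitted maximal effect; nearly all actives have a fitted effect of over 60% in size; about a fifth of the inactives were tested at one dose only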
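Cells stably selected in G418 were plated at 2000/well, grown 16-24 hr, then given compounds in DMSO with the PDE inhibitor […] (300 uM solution added) for 30 min at 37C; cAMP was read by HTRF.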
Menin MLL FP FL – displaces fluorescein MLL peptide from human menin; Fluorescence polarization, fluorescein-MLL peptide displacement from menin; FP activity change, % at 61.4 µM; 290,000 tested, under 10 active; AID 1766; inconclusive = falling polarisation curve, or a change in total fluorescence; inactive = total fluorescence flat and polarisation flat or rising; no compound was filed as active; the % refers to the polarisation; negative = inhibition;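 further: % of control where 0% means no effect; inhibitors lower the polarisation; unlabelled MLL peptide was the positive control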
TRPML1 inh – inhibitors of human TRPML1 channel | Q9GZU1 | activity change, negative = inhibition, % (concentration not given with the values) | TRPML1-inducible cells, Ca2+ dye fluorescence, FDSS; active compounds read low; inhibition of EC80 agonist-evoked calcium signal | 390,000 compounds, 0.02% hits; in the data active means activity change below about -50%; inconclusive means about -30% to -50%; inactive means above about -30%;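 further: stimulus is agonist 54-4 at its EC80 concentration; on the % scale 0 is the no-effect control and ±100 the full control effect; the text of the record puts the active cut at -80%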
Target sequence (Q9GZU1 whole entry, looked up): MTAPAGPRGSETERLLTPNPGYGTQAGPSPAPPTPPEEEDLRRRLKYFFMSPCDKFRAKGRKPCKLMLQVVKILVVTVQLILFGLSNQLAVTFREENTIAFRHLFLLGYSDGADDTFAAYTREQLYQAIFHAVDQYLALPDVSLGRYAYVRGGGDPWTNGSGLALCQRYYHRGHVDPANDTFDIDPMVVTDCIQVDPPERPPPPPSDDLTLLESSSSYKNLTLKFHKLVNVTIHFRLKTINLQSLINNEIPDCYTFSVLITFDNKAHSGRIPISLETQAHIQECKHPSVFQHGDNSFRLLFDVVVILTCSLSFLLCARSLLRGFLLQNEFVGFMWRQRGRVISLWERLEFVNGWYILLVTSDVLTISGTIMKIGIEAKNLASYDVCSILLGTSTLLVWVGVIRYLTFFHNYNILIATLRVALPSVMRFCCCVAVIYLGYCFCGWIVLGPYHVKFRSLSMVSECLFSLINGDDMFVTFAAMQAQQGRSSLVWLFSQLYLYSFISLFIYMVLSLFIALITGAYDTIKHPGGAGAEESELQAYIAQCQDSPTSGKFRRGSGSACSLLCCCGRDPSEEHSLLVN
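Tet-induced TRPML1-DL cells loaded with Ca8 no-wash calcium dye were read kinetically on FDSS. Compound addition was followed by EC80 agonist 54-4 (4 uM final); inhibition was read over 110 s.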
TRPV1 PAM – enhances activation of the human vanilloid receptor TRPV1. Q8NER1. TRPV1-expressing cells, Fluo-8 calcium influx, capsaicin EC20 potentiation; host cell line not named in the record; control for the full effect not named in the record. potentiation, % at 8.33 µM. 320,000 compounds, 0.02% hits; active means potentiation above 80%; inconclusive means 30% to 80%; inactive means below 30%; further: 0% is about no effect
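TRPV1-expressing cells were cultured overnight at 35.5C and loaded with Fluo-8 calcium dye for 40 to 90 min at room temperature. After a 10 s baseline, compound was added and calcium influx was read kinetically for 3 min (ex 480/em 520 nm).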
Sfp PPTase inh – blocks B. subtilis Sfp PPTase activity | Q9F4F7 | Biochemical Sfp PPTase activity, qHTS | Potency, µM, without a hit: max response, negative = inhibition, hits mostly inhibitors | 310,000 compounds, 3.5% hits; active means well fitted inhibition curve with a large enough effect; inconclusive means small, poorly fitted or top-dose-only effect, or another doubt; inactive means no such curve, though single readings can be large or run the other way;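 further: the enzyme is Sfp with the accession as filed and its product quenches rhodamine fluorescence; potency means the concentration at half of the fitted maximal effect; 0% = enzyme reaction without inhibitor and -100% = no enzyme wells; top concentration of the series not given in the record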
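Buffer: 50 mM Hepes-Na pH 7.6, 10 mM MgCl2, 0.01% Nonidet P-40, 0.01% BSA. Enzyme 15 nM, pre-exposed to compound 15 min; substrates then added and fluorescence change tracked over 30 min.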
ClpP mod – qHTS Assay for Activators of ClpP; ATP-dependent Clp protease proteolytic subunit (Bacillus subtilis (strain 168)), P80244; purified B. subtilis ClpP, FRET peptide cleavage, 20 min; Potency, µM (highest dose often 57.5 µM), without a hit: at the top dose activity change, negative = active; 340,000 compounds, 1.9% hits; AID 651965, 2013; active = well fitted falling curve with a large enough effect; inconclusive = small, poorly fitted or top-dose-only effect; inactive = no such curve, though single readings can be large or run the other way; further: potency means the concentration at half of the fitted maximal effect; the source files actives as falling curves though it sought activators and does not explain the sign; nearly all actives have a fitted effect of over 65% in size; many hits overshoot -100%
Target sequence (P80244 whole entry, looked up): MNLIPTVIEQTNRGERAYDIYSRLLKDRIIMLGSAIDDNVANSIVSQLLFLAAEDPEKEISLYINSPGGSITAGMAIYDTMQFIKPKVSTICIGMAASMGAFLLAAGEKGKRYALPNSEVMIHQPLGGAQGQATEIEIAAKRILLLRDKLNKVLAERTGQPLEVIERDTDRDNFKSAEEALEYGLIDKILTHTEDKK
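ClpP 10 microg/mL final, pH 8 Tris/KCl buffer with BSA, glycerol, Tween-20; compound pinned in; FRET-FV substrate; RT 20 min; Ex320/Em430; ΔFRET vs ADEP 5.8 microM, DMSO, no enzyme.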
* marks the source's active call; other numbers are inactive results; ? = inconclusive; · = no result given; [ ] = another dose, or the depositor's remark.

SMILES | gsp antag | gsp agonist | Menin MLL FP FL | TRPML1 inh | TRPV1 PAM | Sfp PPTase inh | ClpP mod
Cc1cc(C(F)(F)F)nc(SCC(=O)NC2=NC(=O)C(C)S2)n1 (stereo not drawn) | 4.8% | -23.8% | -1.4 | -3.6 | 2.0 | -42.3% | -0.4%
Cc1nc2ccccc2c2c1CC(C)S2 (stereo not drawn) | 0.6% | 8.91µM* | 0.5 | · | -0.7 | 7.9% | 3.7%
O=C(CSc1ccccc1C(=O)O)c1ccc(Cl)cc1 | -3.1% | -15.9% | 2.8 | -13.6 | 3.2 | 12.4% | ·
CCOC(=O)C1=C(C)OC(N)=C(C#N)C1c1cc(F)ccc1F (stereo not drawn) | -5.8% | -13.8% | 7.0 | 2.3 | 13.0 | 15.1% | -0.8%
CSCCC(NC(=O)COc1ccccc1)C(=O)NCC(C)(C)N1CCOCC1 (stereo not drawn) | · | -64.1%[inhibitor] | · | -10.1 | · | · | 0.1%
COc1ccc(CN2CCN(c3ccccn3)CC2)cc1OCc1ccccc1 | -35.6% | 4.1% | -1.8 | 7.7 | 6.1 | -26.2% | -9.7%
CCCCn1c(/C=N/Nc2nc3ccccc3[nH]2)nc2ccccc21 | -27.7% | 0.0% | -0.3 | -4.4 | -9.8 | ? | -7.6%
CCN(CC)c1ccc(C2Nc3cccc4cccc(c34)N2)cc1 | 5.0% | 12.0% | 0.1 | 20.0 | 19.3 | -13.3% | ·
COc1ccc(Oc2nc(-c3ccncc3)nc3ccccc23)cc1 | 0.5% | 25.3%[15.4 µM] | -0.6 | 43.1 | 20.1 | -23.1% | -5.4%
NS(=O)(=O)c1ccc(CCNC(=O)Nc2ccc(Cl)c(Cl)c2)cc1 | -18.5% | 18.6% | 6.3 | 0.6 | -13.2 | -0.7% | -2.4%
CCOC(=O)c1nn(C)c2[nH]c(=O)n(C)c(=O)c12 | 18.1% | ? | · | -7.0 | · | · | ·
Cc1nn(Cc2c(F)cccc2Cl)c(C)c1[N+](=O)[O-] | ? | -12.6%[15.4 µM] | -4.5 | 12.0 | -20.8 | 15.3% | ·
Cc1ccccc1OCCCSc1nc2ccccc2[nH]1 | -23.4% | -2.5%[15.4 µM] | -1.0 | -21.8 | -6.7 | 8.4% | 1.3%
COCC(C)NC(=O)COc1nncc2ccccc12 (stereo not drawn) | -22.2% | 37.1%[15.4 µM] | 7.8 | 6.2 | 80.9* | -6.0% | ·
CC1CCc2c(sc(Nc3nc4c(F)cccc4s3)c2C(N)=O)C1 (stereo not drawn) | -12.3% | -1.1% | ? | 7.3 | 28.5 | 25.1µM* | ?
CC(C)(C)n1nnnc1C(c1cccs1)N1CCN(Cc2ccccc2)CC1 (stereo not drawn) | 0.9% | 4.8% | 0.2 | 22.2 | -10.3 | -15.6% | -1.3%
Cn1cc([N+](=O)[O-])c(C(=O)Nc2ccc(Br)cn2)n1 | -1.6% | 9.4% | -0.1 | -0.6 | -13.7 | 5.0% | -1.2%
COc1ccc(CN2CCN(S(=O)(=O)c3ccc(C)cc3)CC2)cc1Br | -20.0% | -19.7% | -0.9 | -5.0 | -18.0 | ? | -2.4%
CC(C)c1onc(C(=O)N2C(C)CCCC2C)c1[N+](=O)[O-] (stereo not drawn) | 6.8% | -42.7%[inhibitor] | 4.0 | -8.4 | -32.4 | -4.4% | -0.6%
O=C(COC(=O)/C=C/c1cccs1)NC1CCCCC1 | 0.7% | 13.0% | · | -2.7 | 8.0 | 6.2% | -1.4%

Given with each value named: part of the list above
compound: Cc1ccccc1OCCCSc1nc2ccccc2[nH]1
  gsp antag: -23.4%
  gsp agonist: -2.5%[15.4 µM]
  Menin MLL FP FL: -1.0
  TRPML1 inh: -21.8
  TRPV1 PAM: -6.7
  Sfp PPTase inh: 8.4%
  ClpP mod: 1.3%
compound: COCC(C)NC(=O)COc1nncc2ccccc12 (stereo not drawn)
  gsp antag: -22.2%
  gsp agonist: 37.1%[15.4 µM]
  Menin MLL FP FL: 7.8
  TRPML1 inh: 6.2
  TRPV1 PAM: 80.9*
  Sfp PPTase inh: -6.0%
  ClpP mod: ·

(continued)
SMILES | gsp antag | gsp agonist | Menin MLL FP FL | TRPML1 inh | TRPV1 PAM | Sfp PPTase inh | ClpP mod
CC(c1ccco1)N(C(=O)c1ccccc1NS(=O)(=O)c1ccc(Cl)c([N+](=O)[O-])c1)c1ccccn1 (stereo not drawn) | -30.2% | 39.4% | 4.6 | -5.6 | 8.2 | -1.6% | -3.7%
CCC(NC(=O)c1cc(COc2cc(C)c(Cl)c(C)c2)on1)c1ccncc1 (stereo not drawn) | 1.4% | -3.5% | -1.1 | 0.5 | -10.8 | 2.2% | 0.3%
O=C(Nc1ccc(S(=O)(=O)N2CCCC2)cc1)C1CC(=O)N(c2ccc(F)cc2)C1 (stereo not drawn) | -17.0% | -15.8% | -9.5 | 9.5 | -18.3 | 2.0% | ·
O=C(Nc1nnc(-c2ccc(Cl)cc2)o1)NC1CCCCC1 | 8.2% | -1.1% | -1.2 | -7.3 | 0.8 | 25.8% | ?
O=[N+]([O-])c1ccccc1-c1ccc(C(=S)N2CCCCC2)o1 | -15.2% | -4.4%[15.4 µM] | 5.9 | 19.3 | · | 25.1µM* | -0.1%
Cc1ccc(NC(=O)CSCC(=O)NCc2cccc(C(F)(F)F)c2)cc1 | -2.8% | 2.7%[15.4 µM] | · | -2.8 | -10.6 | · | -0.6%
CC1CCN(C(=O)CN2C(=O)c3cccc4cccc(c34)C2=O)CC1 | 2.7% | 4.3%[15.4 µM] | -0.2 | 6.1 | 1.2 | 7.4% | 0.5%
Cc1nc2ccccc2c(=O)n1NC(=O)c1ccco1 | 6.5% | -13.5% | 1.9 | -5.0 | -15.0 | 5.1% | 1.6%
CC1CC(C)CN(C(=O)c2ccc(CNc3c(N4CCCC4)c(=O)c3=O)cc2)C1 (stereo not drawn) | 4.7% | -34.2% | -0.1 | 30.4 | 4.9 | 11.2% | 0.9%
COc1ncnc2c1oc1nc(C(C)C)c3c(c12)CC(C)(C)OC3 | -1.9% | ? | 1.8 | -8.0 | 12.7 | 9.7% | -9.1%
CC(=O)Nc1c(C)ccc(S(N)(=O)=O)c1C | 8.2% | -24.3% | 1.5 | -1.9 | -4.7 | 8.2% | ·
CN1CCc2c(sc(/N=C/c3c[nH]c4ccccc34)c2C(N)=O)C1 | -8.5% | 11.3% | ? | 16.2 | 5.1 | ? | 3.7%
COC(=O)c1ccc2c(C(C)(C)O)c(C(C)(C)O)[nH]c2c1 | · | · | 5.8 | · | 15.0 | 2.2% | ·
CC(=O)c1ccccc1NC(=O)COC(=O)CSCC(=O)Nc1cc(C)on1 | 6.0% | -9.3%[15.4 µM] | · | 1.5 | 1.5 | · | -3.1%
OCCC1CN(Cc2nc3ccccc3s2)CCN1C1CCCCC1 (stereo not drawn) | -5.7% | -35.8%[inhibitor] | -2.3 | 6.4 | 2.9 | 2.6% | -0.9%
CC(=O)Nc1nc(=S)n(-c2ccccc2)[nH]1 | 0.5% | 21.2% | 2.5 | 3.0 | 11.0 | 15.8µM* | 2.2%
OC(CNCC1COc2ccccc2O1)COc1ccccc1F (stereo not drawn) | 3.6% | 20.8% | -3.3 | 2.4 | 10.5 | 24.7% | ·
Cc1ccc(NC2CCCN(C(=O)c3ccc4[nH]ccc4c3)C2)cc1C (stereo not drawn) | -11.0% | -67.0%[inhibitor] | -1.3 | 8.4 | 4.1 | 6.1% | 0.9%
Cc1ccc(S(=O)(=O)NCCC(=O)NC(C)c2ccccc2)cc1 (stereo not drawn) | -2.1% | ? | · | -14.1 | 4.9 | 13.2% | -2.5%
Cc1c(O)nc(SCC(=O)Nc2ccc3c4c(cccc24)CC3)n(-c2ccc(F)cc2)c1=O | -17.1% | 6.0%[15.4 µM] | 3.9 | -1.8 | 12.0 | 15.3% | ·
COc1cc(/C=C/C2=CC(C)(C)NC(=S)N2)cc(OC)c1OC | -5.0% | -74.4%[inhibitor] | 0.6 | 11.0 | 8.1 | 3.0% | ·
O=C1N/C(=N\N=C\c2ccc3ncccc3c2)SC1Cc1ccc(SC(F)F)cc1 (stereo not drawn) | -16.5% | -25.3% | -4.9 | 10.2 | 13.3 | 13.2% | 2.7%
O=C(OCn1nnc2ccccc2c1=O)c1ccc(F)c(S(=O)(=O)N2CCOCC2)c1 | · | ? | · | -4.0 | · | · | 0.0%
COc1ccc(NC(=O)CCCC(=O)c2ccccc2)cc1 | 1.5% | -22.6% | -1.0 | ? | -7.9 | 7.5% | 3.6%
CC(C)N(Cc1nccn1C)C(=O)C1CCC(=O)N(CCc2ccccc2)C1 (stereo not drawn) | · | ? | · | 14.2 | · | · | 0.6%
O=C1[C@H]2[C@@H](C3CC3)N3C(=O)CN(CC4CC4)C(=O)[C@@]3(Cc3ccccc3)[C@H]2C(=O)N1c1ccccc1 | 6.5% | -4.3% | · | -12.1 | · | · | 1.5%
CN(Cc1ccccc1)S(=O)(=O)c1ccccc1[N+](=O)[O-] | 0.9% | -1.5%[15.4 µM] | 0.1 | -18.7 | -3.3 | -9.7% | ·
O=C(N/C(C(=O)N1CCOCC1)=C(\Sc1ncccn1)c1ccccc1)c1ccccc1 | 14.2% | 2.0% | 3.4 | 10.0 | -3.3 | -76.3% | 0.9%
C=CCNC(=O)C(=O)Nc1ccc2c(c1)N(S(=O)(=O)c1cccs1)CCC2 | 6.7% | 12.4% | · | -4.5 | -21.3 | · | -0.6%
COc1ccc(/C(C)=C(\C#N)C(=O)OC(C)C)cc1OC | 3.2% | -4.6% | 6.8 | 9.4 | 4.8 | 10.1% | -3.6%
CS(=O)(=O)Nc1nnc(Cc2ccccc2)s1 | -12.8%[15.4 µM] | 0.5% | 0.4 | 44.8 | 0.8 | 19.5% | -2.4%
O=C(NCCc1ccccc1)C(=O)NCCC1CCCCN1S(=O)(=O)c1cccs1 (stereo not drawn) | -0.1% | -49.4%[inhibitor] | · | -5.2 | 0.5 | · | -4.8%
CCn1c(SCC(=O)Nc2ccc(OC)c(OC)c2)nnc1-c1ccco1 | -6.9% | 14.0% | -1.0 | -0.8 | -11.4 | 14.2% | -4.4%

Assay outcomes deposited in PubChem by National Center for Advancing Translational Sciences (NCATS).
